# Compound activity as filed in PubChem BioAssay.
# VDR inhibitor: Inhibitors of the vitamin D receptor (VDR): qHTS; VDR-SRC2-3 peptide fluorescence polarization, 2 h; Potency, µM, inactives show max response, negative = inhibition, most hits filed as inhibitors; Vitamin D3 receptor (Homo sapiens), P11473; actives 0.93% (n = 400,000); AID 504847, 2011; active = well fitted inhibition curve with a large enough effect; inconclusive = small, poorly fitted or top-dose-only effect, or another doubt; inactive = no such curve, though single readings can be large or run the other way; also: series mostly up to about 120 µM
# Target sequence (P11473 whole entry, looked up): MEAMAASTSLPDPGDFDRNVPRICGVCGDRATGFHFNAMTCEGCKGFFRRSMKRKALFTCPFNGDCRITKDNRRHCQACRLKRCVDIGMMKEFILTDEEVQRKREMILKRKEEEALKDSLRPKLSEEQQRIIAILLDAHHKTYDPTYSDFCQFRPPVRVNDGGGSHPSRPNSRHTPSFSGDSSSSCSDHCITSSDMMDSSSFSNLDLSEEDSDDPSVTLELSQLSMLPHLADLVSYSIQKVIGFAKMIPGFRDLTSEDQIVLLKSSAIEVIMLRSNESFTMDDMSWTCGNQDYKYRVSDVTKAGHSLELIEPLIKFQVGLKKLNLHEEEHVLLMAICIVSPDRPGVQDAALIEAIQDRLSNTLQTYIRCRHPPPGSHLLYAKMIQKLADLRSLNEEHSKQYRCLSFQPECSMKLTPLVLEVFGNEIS
#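 The screen uses fluorescence polarization to detect compounds that interfere with recruitment of the SRC2-3 coactivator peptide to VDR; plates are read after 2 h at room temperature.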
# * hit, by the source's call; ? = inconclusive; [ ] = remark or other dose. % is scaled to controls: 0 for no effect and ±100 for the full control effect; potency is read from the fitted curve at half-maximal effect. The list is partial; the hit share may differ from the screen's.
mol | VDR inhibitor
Cc1cccc(C2=NN(c3ccccc3)[C@H](CO)[C@H]2c2ccc(Cl)cc2)c1 | ?
CCCc1nc2oc3c(OC)ncnc3c2c2c1COC(C)(C)C2 | 8%
COc1ccc(N(C(=O)c2ccc(OC)c(OC)c2)S(=O)(=O)c2ccc(Cl)cc2)cc1 | -4%
Cc1ccc(OCCn2ccnc2)c(C)c1 | 15%
CCOc1ccc(C(=O)NCC(=O)OCC(=O)N(C)CC(=O)Nc2ccccc2CC)cc1OCC | -4%
CCCCOc1ccc(C(=O)NCc2ccncc2)cc1 | 7%
CC(C)(C)NC(=O)C(c1ccncc1)N(CC1CCCO1)C(=O)Cn1nnc(-c2ccc(F)cc2)n1 (stereo not given) | -2%
Cc1ccn2cc(CCNC(=O)CC(C)(C)C)nc2c1 | -17%
COc1cc2ccccc2cc1C(=O)Nc1cccc(-c2nc3ccccc3o2)c1 | -6%
COCCn1nnnc1C(c1cccs1)N1CCN(c2ccccc2)CC1 (stereo not given) | 9%
CC1(C)Cc2nc3sc(C(N)=O)c(N)c3cc2CO1 | ?
COc1ccc(C2C(=O)N(C3CCCCC3)CC(=O)N2CCc2ccccc2)cc1OC (stereo not given) | 11%
Cc1ccc(-n2nnnc2SCn2nnc3ccccc3c2=O)cc1 | -3%
Cc1cc2cc(CNC(=O)c3cccc([N+](=O)[O-])c3)ccc2[nH]1 | -4%
CCn1c(CN2CCOCC2)nnc1SCC(=O)Nc1ccc(C(C)=O)cc1 | -7%
O=C(O)C1CC(=O)N(c2ccc(Br)cc2)C1 (stereo not given) | 5%
COCCCn1c(SCc2nnc(-c3ccccc3)o2)nc2sc3c(c2c1=O)CCC3 | -11%
COc1ccc(F)cc1S(=O)(=O)NCCc1csc(-c2ccc(Cl)cc2)n1 | 5%
CC12CCC3(CC1CCC1OC12)OCCO3 (stereo not given) | -15%
Cc1ccccc1C(=O)c1c[nH]c(C(=O)NCCCn2ccnc2)c1 | -3%
CC[C@@H](C(=O)n1nc(C)cc1C)[C@H](NS(=O)(=O)c1ccc(C)cc1)c1ccccc1 | 13%
Cc1c(-c2nsc(NC(=O)c3cccs3)n2)nnn1-c1ccc(F)cc1 | 0%
CCN(CC)c1ccc(N2C(=O)/C(=C\c3cccnc3)SC2=S)cc1 | -11%
Cc1cc(Nc2ccccc2F)n2nc(Cc3ccc(Cl)cc3)nc2n1 | -11%
COc1ccc(CCN2C(=O)CC(C(N)=O)SC2=Nc2ccccc2)cc1OC (stereo not given) | -8%

# Given with each value named: 3 of the compounds above.
> COCCn1nnnc1C(c1cccs1)N1CCN(c2ccccc2)CC1 (stereo not given)
  VDR inhibitor: 9%
> CC1(C)Cc2nc3sc(C(N)=O)c(N)c3cc2CO1
  VDR inhibitor: ?
> COc1ccc(C2C(=O)N(C3CCCCC3)CC(=O)N2CCc2ccccc2)cc1OC (stereo not given)
  VDR inhibitor: 11%

# Continued.
mol | VDR inhibitor
CCOC(=O)CN(C(=O)CSc1nnc(CNc2ccc(F)cc2)o1)c1ccccc1 | 16%
CCOc1ccc(CNC(=O)CCS(=O)(=O)c2cc3c(cc2Cl)NC(=O)CO3)cc1OC | 10%
COc1cccc(Oc2nc(C)nc3c2oc2ccccc23)c1 | 6%
Cc1ccc2c(c1)N(CC(=O)N1CCOCC1)C(=O)CO2 | -15%
Cc1cccc(NC(=O)N[C@@H](C)C(=O)O)c1 | -2%
COc1ccc([N+](=O)[O-])cc1/C=N/NC(=O)c1nonc1N | -6%
O=C(NCCCC(NC(=O)OCc1ccccc1)C(=O)O)OCc1ccccc1 (stereo not given) | -7%
C#CCOCCOCCOCCNc1nc(N2CCN(C(=O)CCCCCCCCCCNC(=O)[C@H](CO)n3cc(CCCSC)nn3)CC2)nc(N2CCN(C(=O)CCCCCCCCCCNC(=O)[C@H](CCCN=C(N)N)n3cc(C[C@@H](C)CC)nn3)CC2)n1 | 78%[activator]
O=C(CSc1nc2ccc(Cl)cc2[nH]1)Nc1ccc2[nH]c(=O)[nH]c2c1 | -15%
CC(C)C[C@H](NC(=O)c1nc[nH]c1C(=O)NC(c1ccccc1)c1ccccc1)C(=O)OC(C)(C)C | -9%
COc1ccc(NS(=O)(=O)c2cc(Br)cc3c2N(C(=O)C2CC2)CC3)cc1OC | -8%
COC(=O)c1ccccc1NC(=O)CN1CCc2ccccc2C1 | -1%
Cc1nn(-c2cccc(Cl)c2)c2nc(-c3ccco3)cc(C(=O)O)c12 | -12%
COc1cccc(NC(=O)C2C3C=CC4(O3)C2C(=O)N(CCCN2CCCCC2)C4C(=O)NC2CCCCC2)c1 (stereo not given) | 5%
O=C(Nc1ccccc1N1CCOCC1)c1cccc(S(=O)(=O)Nc2ccccc2F)c1 | -15%
CS(=O)(=O)N(CC(=O)N1CCN(Cc2ccc3c(c2)OCO3)CC1)C1CCCCC1 | 1%
CC(C)[C@H](NC(=O)Nc1cccc(Br)c1)C(=O)O | -9%
COc1ccc(C(=O)NN2CCCCC2)cc1OC | 4%
COc1ccc(N2CCN(C(=O)CCCn3c(=S)[nH]c4cc5c(cc4c3=O)OCO5)CC2)cc1 | 18%
CC(C)(C)c1ccc(C(=O)NC(=S)N2CCOCC2)cc1 | -13%
Cc1cc(NC(=O)CSc2ccc3nnc(-c4ccc(Cl)cc4)n3n2)no1 | 4%
COc1ccc(C(=O)/C(=C/O)N=Nc2ccc(F)cc2)cc1 | 1%
COc1cccc(/C=N/N(C)C2=NS(=O)(=O)c3ccccc32)c1O | -1%
Cc1ccc(C#N)c(SCc2ccccc2[N+](=O)[O-])n1 | 1%
COc1cc(-c2nc(S(=O)(=O)c3ccc(Cl)cc3)c(N(C)C)o2)cc(OC)c1OC | -4%

# Three structures already listed, arranged by molecular weight, high to low.
mol | VDR inhibitor
O=C(CSc1nc2ccc(Cl)cc2[nH]1)Nc1ccc2[nH]c(=O)[nH]c2c1 | -15%
CC(C)[C@H](NC(=O)Nc1cccc(Br)c1)C(=O)O | -9%
CC(C)(C)c1ccc(C(=O)NC(=S)N2CCOCC2)cc1 | -13%

# Following part:
smiles | VDR inhibitor
Cc1ccc(S(=O)(=O)NC(=O)c2cc(C)n(CCCN3CCOCC3)c2C)cc1 | -5%
Cc1cccc(C(=O)N2CCCC(N3CCN(c4ccccc4)CC3)C2)n1 (stereo not given) | -15%
COc1ccccc1CCNC(=O)/C(=C/c1cccnc1)NC(=O)c1ccccc1 | 13%
CCOc1ccccc1NC(=O)C(CC(C)C)NS(=O)(=O)c1ccc2c(c1)CCN2C(C)=O (stereo not given) | 0%
Cc1cc(C)n(C(=O)c2ccc(NC(=O)CC(C)C)cc2)n1 | -1%
C=CC[C@@H](CC(=O)N(CCO)Cc1ccccc1)C(=O)N[C@H](COC(=O)[C@@H](CC=C)CC(=O)OC(C)(C)C)C(C)(C)C | -21%
CSc1sc(C#N)c2c1/C(=N\O)CCC2 | 14%
O=[N+]([O-])C(=C1SCCS1)C(=C(Cl)Cl)N1CCCCC1 | 17%
CC1CN(C(=O)Nc2ccc3c(c2)OCCO3)CC(C)O1 (stereo not given) | -2%
CCN1CCCC1CNC(=O)c1cc2c(OC)c(OC)c(OC)cc2[nH]1 (stereo not given) | 14%
COc1ccc(CC(=O)Nc2cc(-c3cn4cccnc4n3)ccc2C)cc1OC | 6%
Cc1nnc(SCC2=C(C(=O)O)N3C(=O)C(NC(=O)COc4ccccc4)C3SC2)s1 (stereo not given) | ?
CN(CCCC1CCCC1)C(=O)CC1C(=O)NCCN1Cc1ccc(F)cc1 (stereo not given) | -19%
CCN1C(=O)CC(N2CCN(CC(=O)NC(C)C)CC2)C1=O (stereo not given) | 5%
COc1ccc(S(=O)(=O)N(C)C)cc1NC(=O)CSC(C)C(=O)Nc1cc(C)on1 (stereo not given) | 21%
CN(C(=O)c1ccncc1)C1CCCN(Cc2ccccc2F)C1 (stereo not given) | 5%
O=C(NCc1cccnc1)C1CC(c2ccc(Cl)c(Cl)c2)=NO1 (stereo not given) | -29%
O=S(=O)(Nc1ccc2c(c1)OCO2)c1ccc(Br)s1 | -5%
CCOc1ccc(C(O)(c2ccccc2OC)C(CN2CCCC2)c2ccccc2)cc1 (stereo not given) | ?
CC1CC(C)(C)NC(=S)N1CCC(=O)NCc1ccc(Cl)cc1 (stereo not given) | -8%
Cc1cccn2c(=O)c3cc(C(=O)NCC4CCCO4)c(=N)n(Cc4cccnc4)c3nc12 (stereo not given) | 0%
COc1cc(Nc2ncnc(N)n2)cc(OC)c1 | 1%
O=C(Nc1ccccc1C(=O)Nc1nncs1)c1ccccc1 | 3%
Cc1ccc(CN(CC(=O)NC2CCCC2)C(=O)CSc2nnc(COc3ccccc3)o2)cc1 | -16%
Cc1nc(NC(=O)c2ccccc2)sc1-c1csc(NCCc2ccccc2)n1 | 19%
c1ccc(CCNc2c3c(nc4ncnn24)CCC3)cc1 | -5%
CC(C)CC(=O)Nc1ccc(C(=O)COc2ccc(-c3nnco3)cc2)cc1 | -22%
CCCCn1nc(C(=O)N(C)CC(=O)Nc2cccc(F)c2)c2ccccc2c1=O | -15%
CCOC(=O)CSC1=N/C(=C/c2ccc(-n3cncn3)cc2)C(=O)N1C(C)=O | 8%
COc1ccccc1OCc1ccc(C(=O)N2CCCCC2)o1 | -4%
CC(=O)C1=C(c2ccc(Br)cc2)N(C(C)=O)n2c(nnc2C2CCCCC2)S1 | 0%
O=C(CSc1nnnn1-c1ccccc1)N1CCNC1=O | 13%
CCOc1cc(CN2CCN(C(=O)CC(C)C)CC2)ccc1OC | -14%
O=c1c2sccc2nc(SCc2cc(=O)n3ccccc3n2)n1-c1ccc(Br)cc1 | -6%
COc1cccc(C(=O)CSc2nnc(CNS(=O)(=O)c3ccc(C)cc3)n2C)c1 | ?
CCOc1ccc(NC(=O)C2CC(=O)NC(N3CCc4ccccc43)=N2)cc1 (stereo not given) | -6%
COc1ccc(CN2CCNC(=O)C2CC(=O)NCc2cn[nH]c2-c2ccccc2)c(F)c1 (stereo not given) | 29%
Cc1ccc(NC(=S)N(Cc2cccs2)Cc2cc3cc(C)ccc3[nH]c2=O)cc1 | -13%
O=C(NCc1ccccc1)C(=O)NCC1OCCN1S(=O)(=O)c1ccc([N+](=O)[O-])cc1 (stereo not given) | 5%
Oc1ccccc1C=NC(c1ccccc1)C(O)c1ccccc1 (stereo not given) | 4%
CCc1ccc(OCC(=O)Nc2ccc3[nH]ncc3c2)cc1 | -12%
CN(C)c1nc(N)nc(Cn2nnc(-c3ccc(C(F)(F)F)cc3)n2)n1 | -16%
CCOC(=O)C(=CNCC(=O)OC)C(=O)OCC | 2%
CCOc1ccc(-n2c(Cc3cc(=O)[nH]c(=O)[nH]3)nnc2SCC(=O)NC2CCCC2)cc1 | -19%
CC(=O)c1ccc(N2CCN(c3ccc(NC(=O)c4cccs4)cc3C(=O)O)CC2)cc1 | 12%

# In a second layout: entries from further up.
O=C(NCc1ccccc1)C(=O)NCC1OCCN1S(=O)(=O)c1ccc([N+](=O)[O-])cc1 (stereo not given)
- VDR inhibitor: 5%
Oc1ccccc1C=NC(c1ccccc1)C(O)c1ccccc1 (stereo not given)
- VDR inhibitor: 4%

# (cont.)
smiles | VDR inhibitor
Cc1ccccc1N=C1C(=O)Nc2ccccc21 | -21%
Cc1cc(CNC(=O)COc2ccc(C#N)cc2)c2ccccc2n1 | -8%
COc1ccccc1N1CCN(c2nc(-c3ccc(C)cc3)nc3ccccc23)CC1 | 11%
COC(=O)c1oc2ccccc2c1-n1cccc1 | 2%
Cc1ccc(S(=O)(=O)NCCC(=O)N2CCN(c3cccc(Cl)c3)CC2)cc1C | 15%
CC(C(=O)Nc1ccc2c(c1)OCO2)N1CCC(N2CCCCC2)CC1 (stereo not given) | -16%
CN(Cc1nc(-c2ccccc2)no1)C(=O)c1ccc2c(c1)OCO2 | -10%
CCN(C(=O)COC(=O)c1oc2ccc(OC)cc2c1C)C1CCCCC1 | -2%
COc1ccc(N2CC(C(=O)OC(C)C(=O)c3ccccc3)CC2=O)cc1 (stereo not given) | 13%
CC1(c2ccc(Cl)cc2Cl)OCC(Cn2ccnc2)O1 (stereo not given) | -1%
F[B-](F)(F)c1cc2ccccc2s1 | 5%
O=C(CCNS(=O)(=O)c1cccs1)N1CCN(c2cccc(Cl)c2)CC1 | -2%
COc1ccc(-c2nnc(SCC(=O)Nc3cccc(C(F)(F)F)c3)nc2-c2ccc(OC)cc2)cc1 | -4%
Cc1ccc(-c2cn3c(n2)sc2cc(C(=O)NC4CCCc5ccccc54)ccc23)cc1 (stereo not given) | 1%
CCCNC(=O)c1ccc(CN2CCc3ccccc3C2)cc1 | -1%
Cc1cc(C)cc(NC(=O)CCN2C(=O)c3ccccc3S2(=O)=O)c1 | -19%
Oc1c(CN2CCc3ccccc3C2)cc(Cl)c2cccnc12 | -29%
CN1CCN(C(=O)/C(=C\c2ccc3c(c2)OCO3)NC(=O)c2cccs2)CC1 | -17%
CN(C)c1ncc(S(=O)(=O)c2ccccc2)c(=O)[nH]1 | 5%
O=C(NCCNC(=O)c1cc(OCC(F)(F)F)ccc1OCC(F)(F)F)Nc1ccc(OC(F)(F)F)cc1 | 0%
COc1ccc(CC(=O)c2ccc(OC3OC(CO)C(O)C(O)C3O)cc2O)cc1 (stereo not given) | 16%
CCc1cnc2c(c1SC(C(C)=O)C(=O)N(C)C)c(=O)n(C)c(=O)n2C (stereo not given) | 14%
COCCNC(=S)Nc1ccc2nc(N3CCOCC3)cc(C)c2c1 | -5%
NC1=NN(c2ccccc2)C(=O)C1 | ?
CCOc1ccc(NC(=O)CC(Cc2ccc(Cl)cc2)C(=O)O)cc1 (stereo not given) | -10%
Cc1nnc(Cl)c2nn(-c3ccccc3F)c(C)c12 | -20%

# Copied from the list:
# Cc1cc(C)cc(NC(=O)CCN2C(=O)c3ccccc3S2(=O)=O)c1 | VDR inhibitor = -19%
# CC(=O)C1=C(c2ccc(Br)cc2)N(C(C)=O)n2c(nnc2C2CCCCC2)S1 | VDR inhibitor = 0%
# Cc1cccc(C(=O)N2CCCC(N3CCN(c4ccccc4)CC3)C2)n1 (stereo not given) | VDR inhibitor = -15%
# Cc1cccc(NC(=O)N[C@@H](C)C(=O)O)c1 | VDR inhibitor = -2%
